Mtb H37Rv: Confirmatory growth inhibition assay against Mycobacterium tuberculosis H37Rv, potency (AID 1949) | most inactive calls were filed without a number and no value below 0 was filed | inhibition, % at 10 µg/mL, or IC50 in µg/mL where a hit was titrated | 100,000 compounds, 1.6% hits;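 active = confirmed in a dose series; inconclusive = about 50% or more but not retested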;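 also: bacteria grown 7 days with compound before Alamar blue readout; 0% = untreated bacteria and 100% = reference antibiotic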
An asterisk follows results filed as active; i = inactive; ? = inconclusive. A portion of the library. The share of hits here may be higher or lower than overall.

SMILES	Mtb H37Rv
O=C(c1ccc(NC(=S)Nc2ccc([N+](=O)[O-])cc2)cc1)N1CCCC1	i
S=c1[nH]cnc2scc(-c3ccc(Br)cc3)c12	?
COC(=O)Cc1c(C)c2ccc(OCc3ccccc3Cl)c(C)c2oc1=O	1%
COc1ccc(Cl)cc1C(=O)NC(=S)Nc1ccc(F)cc1	i
COc1ccc(CCNC(=O)c2cc(-c3cccs3)nc3ccccc23)cc1OC	i
CCCCNCCCCOc1ccccc1	i
CC(=O)Nc1ccc(-c2nnc(SCC(=O)Nc3cccc([N+](=O)[O-])c3)n2C)cc1	i
Oc1ccc(CCc2ncccc2O)cc1	i
N#C/C(=C/c1c[nH]c2ccc(Br)cc12)c1nc2ccccc2[nH]1	17%
COc1ccc(Nc2nc(NC(C)(C)C)nc(N3CCOCC3)n2)c(OC)c1	18%
COC(=O)c1c(NC(=O)c2ccc(OC)c(OC)c2)sc2c1C(C(=O)OC)CC2 (stereo not given)	18%
CS(=O)(=O)N(CC(=O)Nc1ccc(F)cc1F)c1cccc([N+](=O)[O-])c1	i
CC(Sc1nc2ccccc2[nH]1)c1nc2ccccc2c(=O)[nH]1 (stereo not given)	i
CCc1cc(OCCCCNC)ccc1Cl	7%
CCOC(=O)c1ccc(NC(=S)Nc2ccc(C(=O)N3CCCC3)cc2)cc1	47%
COc1ccc(NC(=O)c2ccccc2NC(=O)c2ccc(OC)c(OC)c2)cc1Cl	i
C=CCNC(=S)NNC(=O)CSCc1ccc(Cl)c(Cl)c1	1%
CC12CCC(C(=O)NCc3ccco3)(C(=O)C1=O)C2(C)C (stereo not given)	i
Cc1ccc(NC(=O)C(=O)NNC(=O)c2ccco2)cc1Cl	1.4µg/mL*
O=c1[nH]c(CSc2nnc(-c3ccccc3)o2)nc2ccccc12	i
CCOC(=O)c1sc(NC(=O)CSc2nnc(C)s2)nc1C	i
Cc1ccc(-c2nc3ccccc3o2)cc1NC(=O)c1cccc(-c2cc3ccccc3oc2=O)c1	10%
CCC(C)Cc1nc(N)c(C#N)c(-c2ccccc2Cl)c1C (stereo not given)	2%
CCOC(=O)c1c(NC(=O)c2ccc(OC)c(OC)c2)sc(C(=O)Nc2ccc(C)cc2C)c1C	1%
O=C(CCSc1ccccc1)N1CCc2ccccc21	0%

Individual results from above.
Mtb H37Rv with COC(=O)c1c(NC(=O)c2ccc(OC)c(OC)c2)sc2c1C(C(=O)OC)CC2 (stereo not given) is entered as 18%
Mtb H37Rv with Cc1ccc(NC(=O)C(=O)NNC(=O)c2ccco2)cc1Cl is entered as 1.4µg/mL*
Mtb H37Rv with N#C/C(=C/c1c[nH]c2ccc(Br)cc12)c1nc2ccccc2[nH]1 is entered as 17%
Mtb H37Rv with CCOC(=O)c1c(NC(=O)c2ccc(OC)c(OC)c2)sc(C(=O)Nc2ccc(C)cc2C)c1C is entered as 1%

Later entries
SMILES	Mtb H37Rv
N#CCc1ccc(NC(=O)CN(c2ccc(Cl)cc2Cl)S(=O)(=O)c2ccccc2)cc1	20%
O=C(NN1C(=O)CCC1=O)c1cccc(I)c1	1%
COc1ccc(CC(=O)NCCN2CCOCC2)cc1	i
Cc1cccc(-c2noc(Cc3ccc(-c4ccccc4)cc3)n2)c1	3%
C/C=C/c1ccc(OCCCN2CCCC(C)C2)c(OC)c1 (stereo not given)	i
O=C(Nc1nc2ccccc2n1Cc1ccc(Cl)cc1)c1ccco1	i
O=C(CN1C(=O)C2C3C=CC(C4CC34)C2C1=O)Nc1ccc(I)cc1 (stereo not given)	i
O=c1c2c(-c3ccc(Br)cc3)csc2ncn1CCCc1ccccc1	4%
Cc1cc(-c2cccnc2)c(C#N)c(SCC#N)n1	i
CCCCCSc1nc2ccccc2c(=O)n1C1CCCCC1	i
Cc1nc2cc(NCc3cc([N+](=O)[O-])ccc3O)ccc2n1Cc1ccccc1	0%
CC12CCC(C(=O)Nc3ccccc3F)(OC1=O)C2(C)C (stereo not given)	i
CC(=O)C1=C(C)Nc2ncnn2C1c1cc(Br)ccc1OCc1ccccc1 (stereo not given)	5%
COc1cc2c(cc1OC)C(c1cccc(Cl)c1Cl)CC(=O)N2 (stereo not given)	i
CC(=O)c1c(C)[nH]c2ccccc2c1=O	i
O=C(NCc1ccc(Cl)c(Cl)c1)c1cccnc1	i
CCc1cccc(CC)c1NC(=O)c1ccc(Cl)cc1Cl	?
Fc1ccc(C=NN2CCN(Cc3ccccc3Cl)CC2)cc1	i
COCCNCCOc1ccc(Cl)cc1C(C)(C)C	i
C=CCc1ccccc1OCc1nc(=S)[nH][nH]1	i
CN(C)C(=O)c1ccc(-n2nc(C(F)(F)F)c3c2CCCC3)cc1	i
O=C(NCc1ccco1)c1ccc2nc(-c3ccco3)c(-c3ccco3)nc2c1	i
Fc1ccc(OCc2nn[nH]n2)c(F)c1	i
COc1ccc(Cl)cc1NC(=O)N(C)Cc1c(C)nn(C)c1C	i
C=CCNC(=O)c1ccc(N(C)S(C)(=O)=O)cc1	i

In the list so far, three have two or more sulfur atoms.
SMILES	Mtb H37Rv
S=c1[nH]cnc2scc(-c3ccc(Br)cc3)c12	?
C=CCNC(=S)NNC(=O)CSCc1ccc(Cl)c(Cl)c1	1%
CCOC(=O)c1sc(NC(=O)CSc2nnc(C)s2)nc1C	i

Following part:
SMILES	Mtb H37Rv
COc1ccccc1OCC(=O)Nc1ccc(-c2nc3ccc(C)cc3[nH]2)cc1	i
CS(=O)(=O)N(CC(=O)NC1CCCCC1)Cc1ccccc1	0%
N/C(=N\OC(=O)c1ccc([N+](=O)[O-])cc1)c1ccc(Cl)cc1Cl	i
Cc1cc(C(=O)NC(C)C2CCCO2)cs1 (stereo not given)	5%
O=C(Cn1c(C(F)(F)F)nc2ccccc21)NCc1ccc2c(c1)OCO2	i
O=C1CC(c2cccc3ccccc23)Sc2nc(-c3ccccc3)nn21 (stereo not given)	i
COc1ccc(N(CC(=O)N2CCN(c3cc(Cl)ccc3C)CC2)S(C)(=O)=O)c(OC)c1	i
Cc1ccc(C2=NN=C(NC(=O)C(F)(F)F)SC2)cc1	i
N#Cc1cccc(NC(=O)c2cccc(Br)c2)c1	i
CNCCCOc1ccc(Br)cc1	i
CCn1c(SCC(=O)c2ccc(F)cc2)nnc1-c1cc(OC)c(OC)c(OC)c1	0%
CC(C(=O)Nc1nc(-c2ccccc2)cs1)N1C(=O)c2ccccc2C1=O (stereo not given)	i
COc1cccc(NC(=S)/N=C(\N)Nc2nc(C)c3ccc(C)cc3n2)c1	15%
COc1cc([N+](=O)[O-])ccc1NC(=S)N1CCN(c2ccccn2)CC1	i
O=C(Nc1ccccc1-c1nc2ccccc2s1)c1ccc(Br)cc1	1%
COc1ccc(OC)c(NC(=O)Cn2cc(C#N)c3cc(Br)ccc32)c1	i
Cc1ccccc1NC(=O)C1Cc2ccccc2C(=O)O1 (stereo not given)	i
Cc1ccc(SCCC(=O)Nc2cc(C(F)(F)F)ccc2Cl)cc1	i
CC(=O)Nc1ccc(S(=O)(=O)NCCN2CCOCC2)cc1	i
CN1CCN(c2nc3c(c(=O)n(C)c(=O)n3C)n2Cc2ccc(Cl)cc2Cl)CC1	9%
Cc1ccc(C(=O)N2CCN(c3ccc(NC(=O)c4cc(C)cc(C)c4)cc3)CC2)cc1	i
COc1ccc(NC(=O)CCC(=O)OCc2ccc(Br)cc2)cc1	i
C=CCn1c(Cc2ccccc2)nnc1SCC(=O)Nc1c(C)cc(I)cc1C	1%
O=C(c1cnn2c(C(F)F)cc(-c3ccccc3)nc12)N1CCCC1	i
CCC(C(=O)N1CCC(C(N)=O)CC1)c1ccccc1 (stereo not given)	i

Part of the list above, reformatted.
| compound | Mtb H37Rv |
| --- | --- |
| O=C1CC(c2cccc3ccccc23)Sc2nc(-c3ccccc3)nn21 (stereo not given) | i |
| CCn1c(SCC(=O)c2ccc(F)cc2)nnc1-c1cc(OC)c(OC)c(OC)c1 | 0% |
| C=CCn1c(Cc2ccccc2)nnc1SCC(=O)Nc1c(C)cc(I)cc1C | 1% |
| CCC(C(=O)N1CCC(C(N)=O)CC1)c1ccccc1 (stereo not given) | i |
| Cc1ccc(C2=NN=C(NC(=O)C(F)(F)F)SC2)cc1 | i |
| O=C(c1cnn2c(C(F)F)cc(-c3ccccc3)nc12)N1CCCC1 | i |

Continued:
SMILES	Mtb H37Rv
Cc1cccc(CN2CCN(C(=O)c3cccc(F)c3)CC2)c1	i
COc1ccc(CCN2C(=O)C3C4CCC(C4=C(C)C)C3C2=O)cc1OC (stereo not given)	i
O=C(Nc1nnc(C2CCCO2)s1)c1cccs1 (stereo not given)	3%
CCC1CC(CSc2ncn[nH]2)OC1=O (stereo not given)	i
O=C1OC(c2ccccc2)=N/C1=C/c1cccc(OC(=O)c2ccco2)c1	i
COc1ccc(-c2nc(N)n(S(C)(=O)=O)n2)cc1	i
C=CCOc1nc2c(c(=O)n(C)c(=O)n2C)n1C	i
COc1ccc(CN2C(=O)C(O)(CC(=O)c3c(C)coc3C)c3ccccc32)cc1OC (stereo not given)	i
CCOC(=O)c1ccc(NC(=O)CSc2nnc(CNC(=O)c3ccc(Cl)cc3)n2C)cc1	i
COC(=O)c1ccc(C)c(NC(=O)C(C)Sc2ccccc2)c1 (stereo not given)	i
O=C(Nc1ccc(Br)cn1)c1ccccc1	i
O=C(O)C1CC(c2ccccc2O)=NO1 (stereo not given)	i
CCn1c(SCc2ccc(C(=O)OC)cc2)nnc1-c1ccccc1	i
CC(C)c1ccc(N2C(=O)CC(Sc3ncn[nH]3)C2=O)cc1 (stereo not given)	i
Cc1cc(NC(=O)CSc2nnc(-c3ccccc3Cl)o2)no1	2.4µg/mL*
O=C(c1ccco1)N1CCN(C(=O)c2cnn3cccnc23)CC1	i
Cc1ccc(S(=O)(=O)Nc2cccc(C(=O)N3CC(C)CC(C)C3)c2)cc1 (stereo not given)	i
O=S(=O)(NCc1ccc2c(c1)OCO2)c1cccc2cccnc12	0%
C=C(C)CSc1nc2sc3c(c2c(=O)n1-c1ccccc1C)CC(C(C)C)OC3 (stereo not given)	i
CC(C)(C)NC(=O)c1cccc(NC(=O)c2ccc3c(c2)C(=O)N(C(C)(C)C)C3=O)c1	0%
CCOc1cc(C=O)cc(Br)c1OCC(=O)NCc1ccccc1	i
COc1ccc(Cl)cc1S(=O)(=O)Oc1cc(C)ccc1C	11%
COCCCn1c(=NC(=O)C(C)C)c(C#N)cc2c(=O)n3ccccc3nc21	i
CCCSc1nc(CC)nc2sc3c(c12)CC(C)(C)OC3	3%
O=C(Nc1cccc(C(F)(F)F)c1)c1ccc2c(c1)OCCO2	i

Next results.
SMILES	Mtb H37Rv
O=C(O)c1cc(-c2ccco2)nc2ccccc12	i
O=C(Nc1ncccc1Cl)c1ccc(Br)cc1	i
O=C(O)c1cccc(-n2nnnc2SCc2ccccc2Cl)c1	i
CCn1c(SCc2nc3ccccc3c(=O)[nH]2)nnc1-c1ccncc1	i
O=C(O)c1ccc(Cl)c(S(=O)(=O)Nc2ccccc2Cl)c1	3%
CS(=O)(=O)N(CC(=O)NC1CCCCC1)c1cccc(Cl)c1	i
O=C(CN1C(=O)c2ccccc2C1=O)Nc1cccc2cccnc12	i
CCOC(=O)c1cnc2ccc(C(=O)OC)cc2c1NCCc1ccc(OC)c(OC)c1	2%
Cc1ccccc1C(=O)N1CCC(C(=O)Nc2ccc(OCc3ccccc3)cc2)CC1	8%
Cc1cc(Br)ccc1OCC(=O)N1CCc2ccccc2C1	2%
Nc1cc(N)nc(SCC(=O)c2ccc(Cl)cc2)n1	1%
CC(=O)Oc1ccc2c(C)c(Cc3ccccc3)c(=O)oc2c1C	i
Cc1cc(O)cc(C)c1NC(=O)c1ccc([N+](=O)[O-])cc1	2%
Clc1cc(Br)ccc1OCCCN1CCCC1	i
COc1ccc(C(=O)n2nc(-c3ccco3)nc2NCc2ccc(F)cc2)cc1	i
CCOc1cc(C(=O)Nc2cccc(Cl)c2N2CCN(CC)CC2)cc(OCC)c1OCC	37%
CC(C)(C)NC(=O)c1ccc(NC(=O)C2CCCO2)cc1 (stereo not given)	i
Fc1ccccc1C1NC(=S)NC2=C1CCc1ccccc12 (stereo not given)	9.4µg/mL*
COc1ccc([N+](=O)[O-])cc1-n1c(C)cc(CO)c1C	i
O=C(Cc1cccc2ccccc12)Nc1ccc(N2CCN(C(=O)c3ccccc3)CC2)c(Cl)c1	43%
CC(C)c1ccc(NC(=O)c2ccc3c(c2)C(=O)N(CC2CCCO2)C3=O)cc1 (stereo not given)	i
CC(Oc1ccccc1)C(=O)Nc1cccc(-c2nnc(-c3ccccc3)o2)c1 (stereo not given)	23%
O=C(Nc1ccc2oc(-c3cccnc3)nc2c1)c1cccs1	i
COc1ccc(OCCSc2nc(N)cc(=O)[nH]2)cc1	4%
CCOc1ccc(S(=O)(=O)NNC(=S)Nc2ccc(Br)cc2)cc1	i

Later entries:
SMILES	Mtb H37Rv
CC(=O)Nc1ccc(C(=O)Nc2ccc(CC(=O)O)cc2)cc1	i
COc1ccc(Cl)cc1-c1nc(-c2ccc(Br)cc2)no1	i
Cc1cc(-c2ccc(/C=C3\Sc4ccccc4C3=O)o2)cc([N+](=O)[O-])c1C	41%
CCC(=O)c1ccccc1OCCCCN1CCN(C)CC1	i
COc1cc(S(=O)(=O)Nc2cc(OC)c(Cl)cc2OC)ccc1Cl	i
CN(CC(=O)Nc1ccc(Cl)cc1Cl)S(=O)(=O)c1ccc(Cl)cc1	1%
C=CCNc1oc(-c2ccc(OCC)cc2)nc1C#N	i
CCCC(=O)Nc1ccc2nc(SCC(=O)N3CCN(c4ccccc4)CC3)sc2c1	0%
Cc1c(C=O)c2ccccc2n1CC(=O)N1CCN(c2ccccc2)CC1	i
COC(=O)C1=CN(c2ccc(F)cc2)C=C(C(=O)OC)C1c1cccc(Br)c1	i
C=CCNC(=O)CCCOc1cc(C)ccc1C	i
CC(C)(C)c1csc(NC(=O)c2ccc(N3CCCCC3)c([N+](=O)[O-])c2)n1	11%
Cc1cc(C)c(S(=O)(=O)NCc2ccco2)cc1C	i
COc1cccc(OC)c1C(=O)Nc1ccc(Cc2ccncc2)cc1	i
COc1ccc(OC)c(NC(=O)c2c(NC(=O)c3ccco3)sc3c2CCC3)c1	i
CCOc1cc2occ(Oc3ccccc3)c(=O)c2cc1CC	4%
Cc1ccc(C(=O)Nc2nc3ccccc3s2)s1	?
Cc1ccc(S(=O)(=O)NCCC(=O)NC(C)(C)C)cc1	i
COCc1cc(C)nc(SC)c1C#N	i

High-throughput results from PubChem BioAssay.
